Screens as filed in PubChem BioAssay.
GIV Gai3 FP – inhibitors of GIV GBA-motif binding to rat Galpha-i3 | Galpha-i3/FITC-GIV peptide fluorescence polarization, 90 min; stronger effect = lower value; scaled: aluminum fluoride 0%, vehicle 100% | percent of control (FP), % (concentration not given with the values) | actives 0.42% (n = 210,000) | AID 1224905;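 active = replicate mean at 85% of control or lower, very high polarization wells dropped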;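 note: wells of about 15 µL received 100 nL stock; the first replicate is given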
Target sequence (P08753 whole entry, looked up): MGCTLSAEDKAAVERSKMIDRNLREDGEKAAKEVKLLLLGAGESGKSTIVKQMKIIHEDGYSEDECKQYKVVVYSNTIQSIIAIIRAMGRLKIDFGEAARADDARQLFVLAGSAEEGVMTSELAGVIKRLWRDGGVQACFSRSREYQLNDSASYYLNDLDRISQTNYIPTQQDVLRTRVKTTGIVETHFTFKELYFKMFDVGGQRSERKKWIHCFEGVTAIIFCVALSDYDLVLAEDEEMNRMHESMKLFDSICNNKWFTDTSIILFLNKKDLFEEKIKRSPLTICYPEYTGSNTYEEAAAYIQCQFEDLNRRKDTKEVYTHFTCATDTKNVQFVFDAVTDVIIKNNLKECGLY
Sa growth 42C – blocks Staphylococcus aureus growth | relative growth, % (no concentration beside the values) | S. aureus RN4220 growth, OD600, 20 h, 42 °C; stronger effect = lower value | actives 0.53% (n = 170,000);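 active = growth at 42 °C up to 50% and 20 or more points under that at 30 °C, or under 10% at both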;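 note: 300 nL library stock went into each well; scaled to the means of positive and negative controls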
HCMV UL50-53 inh – cytomegalovirus nuclear egress complex inhibition; HTRF UL50-UL53 interaction, normalized percent inhibition; inhibition, % (no concentration beside the values); actives 0.15% (n = 190,000);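 active = both replicates at 50% or more, plus weaker picks with an unusually low signal ratio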;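 note: stock transfer was 100 nL into about 20 µL; 0% = negative control wells and 100% = wells with untagged competitor protein; inactives centre near -12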
Sa growth 42C second temp – recorded beside Sa growth 42C, whose call it bears; relative growth, %; measured here: growth at 30 °C;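 optical density after 20 h as mean of two plates; 100% = untreated growth and lower means inhibition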
An asterisk follows results filed as active; . = no result given; & = joins results of further samples.

Screens in order – GIV Gai3 FP, Sa growth 42C, Sa growth 42C second temp, HCMV UL50-53 inh
1: Cc1noc(C)c1C(=O)NCCCc1ccccc1
  106.9, 111.6, 107.3, -4.6
2: Cc1ccc(-c2nc3ncccc3o2)cc1NC(=O)COc1ccc(C(C)C)cc1
  105.7, 101.4, 85.3, -29.5
3: CC(C)OC(=O)CSc1nc2cccnc2n1C1CCCCC1
  105.5, 99.7, 110.8, 9.8
4: O=C(NC(=S)Nn1cnnc1)C1CCCCC1
  ., 92.8, 77.4, -17.6
5: CN=c1scc(-c2ccccc2OC)n1/N=C/c1ccc[nH]1
  ., 78.5, 94.2, -7.4
6: Cc1ccc2c(c1)NC(C(=O)Nc1ccc3c(c1)OCCO3)NS2(=O)=O (stereo not given)
  108.1, ., ., -3.9
7: CCN(CC)C(=O)c1cc2cccnc2n(Cc2ccccc2)c1=O
  101.4, 110.8, 89.7, -8.4
8: CC1CC(C)(C)NC(=O)O1 (stereo not given)
  97.0, 75.2, 82.1, -26.8
9: O=C(CCCC(=O)N1CCCC1)N1CCCC1
  97.5, 99.9, 87.0, -21.8
10: O=C(CC1CCN(C(=O)NC2CCCCC2)CC1)N1CCN(c2ccccn2)CC1
  98.4, ., ., -28.3
11: COc1cccc(/C=N/NC(=O)CSCc2ccccc2)c1O
  95.8, 67.5, 76.0, -71.4
12: CCN(CC)S(=O)(=O)c1ccc2c(c1)nc(SCC(=O)N1CCOCC1)n2-c1ccccc1OC
  ., 99.8, 88.4, -30.8
13: CCCCC(=O)Nc1ccc(SCc2cc(=O)n3c(ncn3C(C)C)n2)cc1
  102.7, ., ., -42.4
14: CC(C)c1cc(Nc2ccc(Br)cc2)n2nc(-c3cccnc3)nc2n1
  107.8, ., ., -11.2
15: COc1ccc(Cl)cc1NC(=O)NCCc1c(C)nn(C)c1C
  102.0&106.5, 85.4, 86.9, 9.7
16: Cn1c(NC(=O)c2ccccc2)nc2ccccc21
  97.8, 9.1*, 0.3*, -12.9
17: CCOC(=O)c1c(C)n(-c2ccccc2)c2ccc(OC(=O)Cc3ccccc3)cc12
  105.2, ., ., 11.8
18: COc1ccc(OC)c(-c2csc(-c3c(N)c(C(=O)c4ccc(F)cc4)n4ccccc34)n2)c1
  104.0, ., ., -0.9
19: CS(=O)(=O)N1CCCc2cc(C(=O)Nc3cccc(C(F)(F)F)c3)ccc21
  102.7, 108.6, 85.9, -22.4
20: Cc1ccc(C)c(N2CCN(C(=O)CCc3c(C)nn(-c4ccc(N5CCCC5)nn4)c3C)CC2)c1
  96.6, 72.0, 82.6, .

Rewritten with each value named: entries from further up
17	CCOC(=O)c1c(C)n(-c2ccccc2)c2ccc(OC(=O)Cc3ccccc3)cc12
  GIV Gai3 FP = 105.2
  Sa growth 42C = .
  Sa growth 42C second temp = .
  HCMV UL50-53 inh = 11.8
18	COc1ccc(OC)c(-c2csc(-c3c(N)c(C(=O)c4ccc(F)cc4)n4ccccc34)n2)c1
  GIV Gai3 FP = 104.0
  Sa growth 42C = .
  Sa growth 42C second temp = .
  HCMV UL50-53 inh = -0.9
19	CS(=O)(=O)N1CCCc2cc(C(=O)Nc3cccc(C(F)(F)F)c3)ccc21
  GIV Gai3 FP = 102.7
  Sa growth 42C = 108.6
  Sa growth 42C second temp = 85.9
  HCMV UL50-53 inh = -22.4
20	Cc1ccc(C)c(N2CCN(C(=O)CCc3c(C)nn(-c4ccc(N5CCCC5)nn4)c3C)CC2)c1
  GIV Gai3 FP = 96.6
  Sa growth 42C = 72.0
  Sa growth 42C second temp = 82.6
  HCMV UL50-53 inh = .

Other structures:
Screens in order – GIV Gai3 FP, Sa growth 42C, Sa growth 42C second temp, HCMV UL50-53 inh
21: CCOc1ccc(NC(=O)/C(C#N)=C\c2ccc(-c3ccc(Cl)cc3)o2)cc1
  106.6, 104.6, 95.7, -34.0
22: COc1ccc(CCNC(=O)Cn2nc(C)c3c(C)n(-c4ccc(C)cc4)nc3c2=O)c(OC)c1
  100.1, 84.2, 89.0, .
23: COc1ccc(NC(=O)C2CCN(C3=NS(=O)(=O)C(c4ccc(C)c(C)c4)=C3C)CC2)c(OC)c1
  106.3, 89.9, 96.6, .
24: Cc1cccc(N(C)Cc2cc(=O)n3nc(CC(C)C)sc3n2)c1
  103.6, ., ., -22.8
25: COc1ccccc1CSc1nc2n(n1)C(c1ccccc1)C(C(=O)Nc1ccc(C)cc1)=C(C)N2 (stereo not given)
  102.6, 103.6, 93.3, -9.0
26: O=C(NNc1ncnc2ccccc12)c1ccc(O)cc1
  ., 82.2, 91.2, -54.1
27: COc1cc(NC(=O)NCCN2CCCc3ccccc32)cc(OC)c1OC
  105.3, 95.4, 83.8, -19.9
28: CN1C(=O)/C(=C/c2cn(CC(=O)O)c3ccccc23)c2ccccc21
  118.0, 99.0, 82.0, .
29: Cc1ccccc1CNC(=O)c1ccc(Cn2c(SCc3cccc(F)c3)nc3cccnc32)cc1
  101.8, 135.8, 102.8, .
30: Cc1cccc(NC(=O)c2cc3ccc(O)cc3oc2=O)c1
  110.8, 114.5, 100.1, -42.7
31: COc1cccc(NC(=O)c2ccccc2-c2nc(-c3ccccc3)no2)c1
  94.2, ., ., 8.2
32: Cc1ccc(-c2cc(C(=O)N3CCC4(CC3)OCCO4)c3ccccc3n2)o1
  117.0, 74.5, 36.5, -34.7
33: CCc1ccc2c(CN3CCC(C(=O)OC)CC3)cc(=O)oc2c1
  ., 94.1, 86.6, -3.5
34: Cn1cc(NC(=O)N2CCCCC2CCO)c2ccccc21 (stereo not given)
  106.4, 104.1, 83.5, -29.8
35: Cc1cccc(-n2ncc3c(NCCCN4CCCC4=O)ncnc32)c1
  100.6, 102.2, 78.5, -19.1
36: Cc1cc(C)c(NC(=O)CN2C(=O)C3(SCC(=O)N3c3ccc(F)cc3)c3ccccc32)c(C)c1 (stereo not given)
  101.7, 104.8, 90.6, .
37: COc1cccc(OCC(=O)Nc2cc(C)nn2-c2ncnc3c2cnn3-c2ccc(F)cc2)c1
  104.2, ., ., 7.8
38: COc1ccccc1NC(=O)COC(=O)c1ccccc1
  ., 96.7, 101.1, 7.9
39: CC(=O)Oc1c(Cc2ccccc2)c(=O)oc2ccccc12
  96.2, 80.6, 61.0, .
40: CC1=Nc2cc(C(=O)NCCc3ccc(Cl)cc3)ccc2Sc2c(C)ccc(C)c21
  112.1, 107.3, 88.9, -15.0

Compound profiles (already shown):
Cc1cccc(-n2ncc3c(NCCCN4CCCC4=O)ncnc32)c1 as listed: GIV Gai3 FP: 100.6; Sa growth 42C: 102.2; Sa growth 42C second temp: 78.5; HCMV UL50-53 inh: -19.1
CC(=O)Oc1c(Cc2ccccc2)c(=O)oc2ccccc12 as listed: GIV Gai3 FP: 96.2; Sa growth 42C: 80.6; Sa growth 42C second temp: 61.0; HCMV UL50-53 inh: .

Looked up above:
cpd 24 in HCMV UL50-53 inh → -22.8
cpd 39 in Sa growth 42C second temp → 61.0

Next part.
Screens in order – GIV Gai3 FP, Sa growth 42C, Sa growth 42C second temp, HCMV UL50-53 inh
41: CCn1cc(CCCC(=O)NC2CCC(C)CC2)c2ccccc21 (stereo not given)
  104.1, 104.1, 88.7, .
42: CN(C)S(=O)(=O)c1ccc(NC(=O)Cn2c(-c3ccccc3)noc2=O)cc1
  101.0, 100.1, 63.1, 7.2
43: Cc1cc(C(=O)CN2C(=O)C3CC=CCC3C2=O)c(C)n1CC1CCCO1 (stereo not given)
  ., 99.3, 97.0, -5.9
44: CCOC(=O)c1c(C)oc2ccc(N(C(=O)Oc3ccccc3)S(=O)(=O)c3ccc(CC)cc3)cc12
  99.1, 100.0, 88.4, -8.6
45: O=C(CSc1cn(CC(=O)N2CCCCC2)c2ccccc12)NCc1ccc(F)cc1
  103.6, 93.4, 82.3, .
46: CCN(Cc1ccccc1)C(=O)C1CCN(S(=O)(=O)c2ccc3c(c2)NC(=O)CO3)CC1
  100.9, ., ., -35.1
47: COc1ccc(C2=NOC(C(=O)N3CCCC3)C2)cc1 (stereo not given)
  103.0, 105.4, 92.3, .
48: Cc1ccc(CNC(=O)C2c3ccccc3C(=O)N(C)C2c2cccs2)o1 (stereo not given)
  100.7, 86.2, 78.0, -33.4
49: Fc1cccc(-c2nnc3sc(-c4c[nH]c5ccccc45)nn23)c1
  105.1, ., ., -1.7
50: O=c1c2c([nH]n1-c1ccccc1)CCCC2
  113.4, 80.7, 106.5, -12.9
51: CC(=O)N1c2ncnn2C2(CCCCC2)[C@@H]2CCCC[C@@H]21
  104.6, ., ., -17.9
52: Cc1cc(S(=O)(=O)N2CCC(n3c(=O)[nH]c4ccccc43)CC2)ccc1-n1cnnn1
  101.5, ., ., -11.6
53: COc1ccc2c(CC(=O)OCC(=O)N3c4ccccc4CC3C)coc2c1 (stereo not given)
  ., 99.5, 88.5, -6.9
54: CCOC(=O)c1c(C)oc2cc(Br)c(OCC(=O)OC(C)(C)C)cc12
  111.9, ., ., 21.7
55: N#CCSc1nnc(CNc2ccc(Cl)cc2)n1-c1ccccc1
  99.6, 77.9, 84.8, 1.2
56: CCCCn1c(CN2CCCCC2)nc2cc(NC(=O)C3CCCCC3)ccc21
  99.8, ., ., 4.5
57: CCSC1=NC(C)(C)C=C(C)N1
  103.8, ., ., -5.3
58: COC(=O)c1ccc(NC(=S)NC(=O)CCN2C(=O)c3ccccc3C2=O)cc1
  104.4, ., ., 3.1
59: COc1cc(/C=N/NC(=O)c2cccc(N3CCCC3=O)c2)ccc1O
  108.7, 108.0, 94.7, -52.5
60: COc1cc(NC(=O)COc2ccc(Cl)cc2)c(C(=O)O)cc1OC
  98.7, 96.0, 87.9, 4.7
61: CC(/C=N/Nc1nc2ccccc2[nH]1)c1ccccc1 (stereo not given)
  ., 64.0, 1.7, -27.4
62: O=C(COc1ccc(Cl)cc1)Nc1c(F)c(F)c(F)c(F)c1F
  ., 127.3, 82.4, -18.6
63: CC1=NC(O)(C23CC4CC(CC(C4)C2)C3)C(C)S1 (stereo not given)
  97.9, 99.1, 96.9, .
64: CCCCNC(=S)Nc1ccc(OC)cc1
  104.1, 110.3, 100.0, 14.0
65: O=S(=O)(c1cccc(S(=O)(=O)N2CCOCC2)c1)N1CCOCC1
  108.4, 94.8, 97.3, 2.5
66: COc1ccccc1-n1cc(C(=O)c2ccccc2O)cc(C#N)c1=O
  ., 88.9, 85.3, -52.2
67: CCOC(=O)c1c(Nc2ccc(OCC)cc2)nnc(-c2ccccc2)c1-c1ccccc1
  102.2, 94.4, 89.0, -12.0
68: Cc1ccc(CNC(=O)c2nn(C)c3c2CSc2ccc(C)cc2-3)cc1
  99.6, 79.6, 85.4, .
69: N/C(=N\O)c1ccc(C2OCCO2)cc1
  98.2, 106.1, 88.9, 1.3
70: Cc1oc2ccc(O)c(CN3CCC(C)CC3)c2c1C(=O)Nc1ccccc1
  99.0, 109.0, 84.0, -9.3

Quoted from above: compounds 69 to 70
Screens in order – GIV Gai3 FP, Sa growth 42C, Sa growth 42C second temp, HCMV UL50-53 inh
69: N/C(=N\O)c1ccc(C2OCCO2)cc1
  98.2, 106.1, 88.9, 1.3
70: Cc1oc2ccc(O)c(CN3CCC(C)CC3)c2c1C(=O)Nc1ccccc1
  99.0, 109.0, 84.0, -9.3

(more compounds)
Screens in order – GIV Gai3 FP, Sa growth 42C, Sa growth 42C second temp, HCMV UL50-53 inh
71: Cc1ccc(NC(=O)c2cc(S(=O)(=O)N3CCC(C)CC3)cn2C)cc1Cl
  103.9, 97.5, 99.4, .
72: c1ccc(-c2cc(-c3nc(-c4ccc5c(c4)OCO5)no3)[nH]n2)cc1
  105.1, ., ., -3.6
73: COC(=O)C(=Cc1ccc(-c2ccsc2C(=O)OC)o1)C(=O)OC
  103.5, 92.6, 83.5, -23.5
74: CC(C)(C)C(=O)Nc1ccc(Cc2ccncc2)cc1
  103.5, 99.5, 89.2, -24.7
75: CCCc1nn2c(=O)cc(COC(=O)c3ccccc3NC(=O)c3cccs3)nc2s1
  96.6, 74.0, 90.0, .
76: COc1ccc(/C=C2\C(=O)c3ccccc3OC2c2ccccc2)cc1 (stereo not given)
  99.3, 74.8, 78.0, -19.3
77: O=C(O)COc1ccc(/C=C2/NC(=O)N(c3ccccc3)C2=O)cc1
  104.4, 92.1, 93.4, -67.1
78: CC(=O)Nc1ccc(S(=O)(=O)N2CC(C)OC(C)C2)cc1 (stereo not given)
  104.9, 91.9, 80.2, .
79: CC(=O)Nc1ccc(NC(=O)CN2C(=O)CN(C)C(=O)c3ccccc32)cc1
  104.2, 105.6, 90.3, .
80: O=C(c1nn2c(c1Br)NC(c1cccs1)CC2C(F)(F)F)N1CCCc2ccccc21 (stereo not given)
  88.5, ., ., -7.8
81: CCOc1ccc2nc(N3CCCCC3)sc2c1
  103.0, 120.6, 93.0, .
82: CCOc1ccccc1N(C)S(=O)(=O)c1ccc2c(c1)CCN2C(=O)CCC(=O)O
  98.5, 93.8, 80.7, -15.9
83: CCn1c(SCC(=O)OC2CCCCC2)nnc1-c1ccc(OC)cc1
  106.5, 102.9, 111.6, 3.8
84: COc1ccc(C2=NS(=O)(=O)N(C)C(C(=O)NCC(C)C)=C2)cc1OC
  99.4, 98.3, 88.1, -69.1
85: CC(C(=O)c1ccccc1)[n+]1cccc(Br)c1 (stereo not given)
  105.2, 114.0, 103.2, .
86: C/C=C(\C(C)=N\O)c1ccccc1
  107.4, 127.3, 94.0, -5.2
